Bioassay records as filed in PubChem.
KCNQ2 pot: enhances the rat KCNQ2 potassium channel | O88943 | CHO-K1 KCNQ2, FluxOR thallium flux fluorescence; hits give high values | B-score at 10 µM | 310,000 compounds, 0.54% hits | AID 2239;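 active means fluorescence ratio B-score at least 3 SD of library B-scores, with initial fluorescence B-score within 3 SD, cut at about 5.3 in these data; same plate scores as AID 2156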;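 further: B-score of peak minus minimum over baseline fluorescence ratio after K+ and Tl+ stimulus; positive B-score means potentiation of KCNQ2 with more thallium influx and brighter signal; only the inactives scoring about 0 or higher are listed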
Target sequence (O88943 whole entry, looked up): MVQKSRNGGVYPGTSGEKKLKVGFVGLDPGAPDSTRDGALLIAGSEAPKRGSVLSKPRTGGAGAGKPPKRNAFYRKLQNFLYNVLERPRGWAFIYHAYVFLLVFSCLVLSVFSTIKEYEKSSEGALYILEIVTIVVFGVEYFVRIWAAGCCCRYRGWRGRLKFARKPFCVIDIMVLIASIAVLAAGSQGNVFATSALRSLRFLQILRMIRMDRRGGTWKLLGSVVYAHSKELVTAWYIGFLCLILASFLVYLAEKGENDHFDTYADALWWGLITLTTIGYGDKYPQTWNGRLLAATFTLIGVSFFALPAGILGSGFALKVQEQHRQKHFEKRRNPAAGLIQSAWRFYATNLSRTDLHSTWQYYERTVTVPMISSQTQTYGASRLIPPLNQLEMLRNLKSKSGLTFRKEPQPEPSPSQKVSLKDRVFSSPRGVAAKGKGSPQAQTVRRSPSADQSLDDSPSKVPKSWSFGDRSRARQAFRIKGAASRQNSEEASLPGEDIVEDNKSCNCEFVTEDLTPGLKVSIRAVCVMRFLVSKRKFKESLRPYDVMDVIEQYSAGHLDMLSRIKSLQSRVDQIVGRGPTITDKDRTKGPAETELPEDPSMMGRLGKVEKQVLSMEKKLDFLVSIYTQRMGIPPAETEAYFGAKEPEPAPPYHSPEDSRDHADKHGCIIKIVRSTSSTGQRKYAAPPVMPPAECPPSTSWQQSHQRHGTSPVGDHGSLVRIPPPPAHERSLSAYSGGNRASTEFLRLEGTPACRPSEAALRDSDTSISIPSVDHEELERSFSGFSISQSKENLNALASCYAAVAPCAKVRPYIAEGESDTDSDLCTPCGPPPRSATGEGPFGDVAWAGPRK
KCNQ2 pot baseline: recorded beside KCNQ2 pot, whose call it bears; B-score; compound at 10 µM; measured here: initial fluorescence intensity artifact check;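 brightness before thallium and not channel activity; 0 = typical well and far values either way flag optical interference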
* marks the source's active call; other numbers are inactive results; nt = not tested or not shown. An excerpt; the hit share may differ from the screen's.

The first 5 entries, ahead of the listing:
canonical_smiles,KCNQ2 pot,KCNQ2 pot baseline
O=C(NCCNS(=O)(=O)c1ccccc1)N1CCOCC1,1.8,-0.96
CCCCn1c(=NC(=O)c2ccco2)c(C(=O)OCC)cc2c(=O)n3ccccc3nc21,2.2,-0.18
C/C(=N/NS(=O)(=O)c1ccc(Br)cc1)c1ccc(C)o1,0.48,-0.03
Cc1noc2ncnc(Oc3ccccc3Cl)c12,1.2,-1
Cc1cccc(-n2c(SCC(=O)N3CCCC3)nc3n[nH]c(C)c3c2=N)c1,0.01,-0.67

Results, from the start:
canonical_smiles,KCNQ2 pot,KCNQ2 pot baseline
O=C(NCCNS(=O)(=O)c1ccccc1)N1CCOCC1,1.8,-0.96
CCCCn1c(=NC(=O)c2ccco2)c(C(=O)OCC)cc2c(=O)n3ccccc3nc21,2.2,-0.18
C/C(=N/NS(=O)(=O)c1ccc(Br)cc1)c1ccc(C)o1,0.48,-0.03
Cc1noc2ncnc(Oc3ccccc3Cl)c12,1.2,-1
Cc1cccc(-n2c(SCC(=O)N3CCCC3)nc3n[nH]c(C)c3c2=N)c1,0.01,-0.67
Cc1cccc(-n2ncc3c(NCCN4CCOCC4)ncnc32)c1,0.5,0.59
O=C(NC(=S)Nc1ccc(CN2CCOCC2)cc1)c1ccc([N+](=O)[O-])cc1,1,0.24
O=C(O)CSc1cccnc1Sc1ccc(Cl)cc1,0.09,-1.7
FC(F)Sc1ccc(NC(=S)NC2CCC(NC(=S)Nc3ccc(SC(F)F)cc3)CC2)cc1 (configuration not stated),0.81,2.2
COC(=O)/C(C#N)=C1/C=Cc2ccccc2N1C,2,-0.02
Cc1ccc(C)c(N(CC(=O)NCc2ccco2)C(=O)CNS(=O)(=O)c2ccc(F)cc2)c1,0.01,-2.1
CCCCN(C(=O)CSCC(=O)Nc1cccc(C)c1)c1c(N)n(Cc2ccccc2)c(=O)[nH]c1=O,0.14,-0.05
COC(=O)C1(CCSC)NC(c2ccc(O)cc2)C2C(=O)N(c3ccc(F)cc3)C(=O)C21 (configuration not stated),0.29,0.33
COC(=O)C1[C@H]2SC(C)(C)C(C(=O)OC)N2C(=O)N1Cc1nc2ccccc2s1 (some centres not stated),0.11,-2.3
Cn1cc(C(=O)NS(=O)(=O)Nc2ccc(Br)cn2)c2ccccc21,0.01,1.3
COc1ccccc1/C=C\C=N\NC(=O)c1ccco1,0.04,-0.88
COc1ccc(/C=N/NC(=O)CNC(=O)c2ccc3c(c2)OCCO3)cc1OC,0.58,-0.24
Cc1ccccc1CN1CCNC(=O)C1CC(=O)O (configuration not stated),1.4,-0.24
CC(C)N(CCC#N)C(=O)Nc1ccc2c(c1)CCO2,2.5,-0.57
CN(Cc1ccccc1)C(=O)CCC(=O)N(C)Cc1ccccc1,1.4,1.9

canonical_smiles,KCNQ2 pot,KCNQ2 pot baseline
CCS(=O)(=O)c1nc(S(=O)(=O)c2ccc(C)cc2)c(NCCCn2ccnc2)s1,0.15,1.9
COC(=O)c1cccc(C(=O)Nc2ccc(F)cc2)n1,0.02,-1.5
COc1ccc(S(=O)(=O)N(CC(=O)Nc2cc(C)on2)Cc2ccccc2)cc1,0.71,-0.51
CC1CC(C)(C)NC(=S)N1CCC(=O)N1CCc2ccccc2C1 (configuration not stated),0.38,-1.1
Nc1nc2ccc(S(=O)(=O)c3ccc4nc(N)sc4c3)cc2s1,0.41,0.78
CSCC[C@H](NC(=O)Nc1cccc(Br)c1)C(=O)O,0.97,-0.29
CCSc1ncnc2sc3c(c12)CCC3,0.7,1.1
O=[N+]([O-])c1ccc(CN2CCCCCC2)s1,1.6,-0.24
CC(C)CN(C(=O)C(c1ccccc1)c1ccccc1)c1c(N)n(CC(C)C)c(=O)[nH]c1=O,1,0.76
c1ccc(-c2nnc(-c3ccccn3)s2)nc1,0.64,-1.3
COC(=O)c1ccc2c(CCO)c[nH]c2c1,0.42,2.2
COc1ccc(Cl)cc1C(=O)NNC(=S)NC(=O)c1ccc(F)c(F)c1,0.02,-0.21
Cc1c(CN(C)C(=O)c2sc3cc(Cl)ccc3c2Cl)cnn1C,0.18,0.37
CCOc1ccc(NC(=S)NCCN2CCN(Cc3ccccc3)CC2)cc1,0.79,-0.17
C/C(=N\n1c(C)nc2ccccc2c1=O)c1ccc(N)cc1,1.9,-3
CCN(C)c1ccc(/C=N\n2nnnc2N)cc1,0.11,0.6
CC(=O)Oc1ccc(/C(C)=N/N2CCN(Cc3ccc(C)cc3)CC2)cc1,1,-1.1
Cc1nnsc1S(=O)c1ccc(Br)cc1 (configuration not stated),0.88,-0.3
CCc1nnc(NC(=O)CSc2nccn2-c2ccccc2)s1,0.98,-0.97
O=C(NCCCO)C(=O)NCc1ccncc1,0.88,-0.47

canonical_smiles,KCNQ2 pot,KCNQ2 pot baseline
CCOC(=O)c1[nH]c(=O)[nH]c1CSCCO,0.51,-0.05
CN1C(=O)/C(=C2/C=CC=CN2C)OC1=S,0.24,0.28
CNC(=S)N(CCc1c(C)[nH]c2ccc(C)cc12)Cc1cc(OC)c(OC)c(OC)c1,0.75,0.35
COC(=O)c1ccc(NC(=O)c2cccc(NC(=O)c3ccccc3)c2)cc1,1.3,-1.2
COc1ccc(N2CCN(CCC3Oc4cc([N+](=O)[O-])ccc4NC3=O)CC2)cc1 (configuration not stated),0.82,-1.5
Cc1nc2ncnn2c(C)c1Cc1c(Cl)cccc1Cl,1.7,0.14
C#CC[N+](C)(C)C(C#Cc1ccccc1)CC=C (configuration not stated),0.43,-1.5
COc1ccc(C(O)(C(C)C)C(CN2CCOCC2)c2ccc(Cl)cc2)cc1 (configuration not stated),2.6,-1.5
COc1ccccc1NC(=O)CN1C(=O)CC(C)S(=O)(=O)c2ccccc21 (configuration not stated),1.5,-0.11
Cc1ccccc1OCC(O)CN1CCN(c2ccccn2)CC1 (configuration not stated),0.89,1.3
O=C(CSc1nc(Nc2ccccc2)nc(N2CCOCC2)n1)N1CCCC1,1.3,0.31
O=C(Nc1ccc2oc(-c3ccncc3)nc2c1)c1ccc(Br)o1,0.46,-0.28
C=CCC(CC=C)(NC(=O)c1cccc(C)c1)c1ccccc1,0.48,-1.7
Cc1ccc(/C=C2\SC(N3CCCCC3)=NC2=O)cc1,0.15,3.1
Cc1ccc(C23CC4CC(CC(C(=O)N5CCOCC5)(C4)C2)C3)cc1,4.3,0.83
C/C(CC(=O)Nc1ccc2c(c1)OCCO2)=N\NC(=O)c1cccc(O)c1,0.85,0.62
CCN(C(=O)COC(=O)c1ccc2c(=O)n3c(nc2c1)CCC3)C1CCS(=O)(=O)C1 (configuration not stated),0.35,1.4
Cc1ccc(/C=N/NC(=O)C(O)c2ccccc2)o1 (configuration not stated),0.09,-0.14
CCN1C(=O)Cc2cc(S(=O)(=O)NCCc3ccccc3)ccc21,1.2,1.2
CC(=O)c1cn(CC(=O)Nc2ccc(C)cc2)c2ccccc12,0.46,0.97

canonical_smiles,KCNQ2 pot,KCNQ2 pot baseline
O=C(NCc1nc2ccccc2[nH]1)c1cccc(S(=O)(=O)N2CCCCC2)c1,0.42,-0.2
Cc1cccc(N(C(=O)c2snc(C(N)=O)c2N)C(C(=O)NCC2CCCO2)c2ccc3ncccc3c2)c1 (configuration not stated),0.02,0.24
Cc1ccc(-n2nnnc2-c2cnc(N3CCCC3)nc2C(F)(F)F)cc1,1.7,-2
O=S(=O)(c1ccccc1C(F)(F)F)N1CCN(S(=O)(=O)c2ccccc2C(F)(F)F)CC1,0.5,0
O=C(CSc1ccc(-c2ccccn2)nn1)Nc1nccs1,0.52,-0.39
COc1cccc(NC(=O)N2CCC(NC(=O)C(Cc3ccccc3OC)NC(C)=O)CC2)c1 (configuration not stated),0.06,-0.12
N#C/C(=N\Nc1ccccc1F)C(=N)N1CCCCC1,0.12,-0.5
COc1ccc(NC(=O)CSCC(=O)Nc2ccc(S(=O)(=O)N3CCCCC3)cc2)cc1,0.02,0.45
Oc1cccc(/C=N/Nc2nn3cnnc3c3ccccc23)c1,0.57,-1.5
O=C(Nc1nnc(CCS(=O)(=O)c2ccc3ccccc3c2)s1)c1ccc([N+](=O)[O-])cc1,0.14,-1.6
Cc1csc(NC(=O)CSCC(=O)O)c1-c1nc2ccccc2s1,1.2,-2.8
CSc1ccc(/C=C(/NC(=O)c2ccccc2)C(=O)NCCN2CCOCC2)cc1,0.15,-0.65
Clc1ccc2nc(-c3ccc(Cl)nc3)[nH]c2c1,6.9*,0.06*
CC(C)N1CCc2[nH]c(=S)[nH]c(=O)c2C1,0.35,-0.33
O=C(N/N=C/c1ccc(O)c([N+](=O)[O-])c1)C1CC1(c1ccccc1)c1ccccc1 (configuration not stated),0.07,-1.4
COc1cc(C)c2c(c1C=O)Oc1c(c(C)c(O)c3c1C(O)OC3=O)OC2=O (configuration not stated),0.45,-0.05
N#Cc1nc(-c2ccccc2Cl)oc1NCC1CCCO1 (configuration not stated),0.68,-0.45
NS(=O)(=O)c1ccc(CCNC(=O)c2cncc(Br)c2)cc1,0.63,0.64
CC(=O)[C@H]1[C@H](C#N)C[C@H]2[C@@H]3CC=C4C[C@@H](O)CC[C@]4(C)[C@H]3CC[C@@]21C,3.8,0
CN1CCN(C(=O)C2=C[C@@H](c3coc4ccccc4c3=O)C[C@@H](OCCCCO)O2)CC1,1.4,0.83

canonical_smiles,KCNQ2 pot,KCNQ2 pot baseline
CCN(C(=O)COc1ncnc2ccc(Br)cc12)C1CCS(=O)(=O)C1 (configuration not stated),1.6,-0.55
Cc1ccc(N(C(=O)Cn2nnc(-c3ccccc3)n2)C(C(=O)NC2CCCCC2)c2ccccn2)cc1C (configuration not stated),0.04,-0.57
Cc1cc(NC(=O)CSc2nnc(C3COc4ccccc4O3)n2C)no1 (configuration not stated),0.93,0.34
O=C(Nc1ccccc1)C1CC(O)CN1S(=O)(=O)c1ccc([N+](=O)[O-])cc1 (configuration not stated),0.07,-0.17
COC(=O)c1sc(SC)nc1N,0.88,-1.1
Cc1cccc(NC(=S)NCC(C)CSc2ccc(Cl)cc2)c1 (configuration not stated),2,1.7
NS(=O)(=O)c1ccc(Nc2nc(-c3ccc4ccccc4c3)cs2)cc1,1.1,0.95
CC(C)C(=O)c1cn(CC(=O)NCC2CCCO2)c2ccccc12 (configuration not stated),1.1,-1.7
Cc1c(C(=O)N/N=C/c2cccnc2)nnn1-c1nonc1N,0.76,-1.1
C/C(=N\Nc1cc(N2CCOCC2)ncn1)c1ccccc1,0.74,-0.8
O=S(=O)(c1ccc2nnn(O)c2c1)N1CCCCC1,1.2,-0.41
COc1ccc(OC)c(NC(=S)NCc2ccco2)c1,1.9,-0.42
Cc1ccc(NC(=S)N2CCN(S(C)(=O)=O)CC2)cc1C,0.41,1.1
CCc1nonc1NC(=O)COc1cc(C)c(Cl)c(C)c1,1.2,-2.8
COc1cccc(C2=NOC(C(=O)N3CCN(Cc4ccccc4)CC3)C2)c1OC (configuration not stated),0.2,-0.09
Cc1ccc(S(=O)(=O)NCc2c(-c3ccccc3)c3cc(Cl)ccc3[nH]c2=O)cc1,0.21,-2.8
CCCCCN(C(=O)CCC(=O)OCCOc1ccccc1Cl)c1c(N)n(CCCC)c(=O)[nH]c1=O,0.69,-0.66
CCCCCNC(=O)c1ccc2c(c1)ncn2-c1ccc(OC)cc1,0.03,-1.4
CCCc1cc(=O)n2nc(N3CCC(C(=O)N4CCN(c5ccc(OC)cc5)CC4)CC3)sc2n1,0.46,-0.1
O=C(Nc1ccc2c(c1)OCO2)N1CCN(C(=O)C2CCCO2)CC1 (configuration not stated),1.8,-0.46

canonical_smiles,KCNQ2 pot,KCNQ2 pot baseline
CN1CC(=O)N=C1N,0.17,nt
O=C(c1ccco1)N1CCN(c2ccc(F)cc2)CC1,0.33,0.64
COc1ccccc1CNC(=O)COn1nnc2ccc(S(=O)(=O)N3CCOCC3)cc21,1.2,1.3
Cc1ccc(C)c(N2C(=O)CS/C2=N\NC(=O)c2ccccc2Cl)c1,1.6,0.37
Cc1ccccc1NC(=O)COC(=O)/C=C/c1cccc(C(F)(F)F)c1,0.88,-0.06
CCc1cc(=O)oc2c(C)c(OC(C)C(=O)NC3CC(C)(C)NC(C)(C)C3)ccc12 (configuration not stated),0.74,3.9

Entries of single compounds, looked up by structure. Values in the order: KCNQ2 pot	KCNQ2 pot baseline
Profile of `Cc1ccccc1NC(=O)COC(=O)/C=C/c1cccc(C(F)(F)F)c1` : 0.88	-0.06
Profile of `CN1CC(=O)N=C1N` : 0.17	nt
Profile of `O=C(c1ccco1)N1CCN(c2ccc(F)cc2)CC1` : 0.33	0.64
Profile of `COc1ccccc1CNC(=O)COn1nnc2ccc(S(=O)(=O)N3CCOCC3)cc21` : 1.2	1.3
